# Insulin prom inh – TRM-6 insulin promoter activity inhibition. TRM-6 cells (human fetal islet line), insulin promoter-eGFP reporter, imaging; reporter expression induced with tamoxifen. inhibition, % at 2 µM. actives 0.9% (n = 130,000). AID 1273;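 active = inhibition above the mean plus 3 SD, with well images judged a real hit on visual review, cut at about 60% in these data, passing the limit was not always enough; inconclusive = inhibition over the cutoff but images rejected on review; inactive = inhibition not above the cutoff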
# RGS16-Gao HTS – modulates binding between human RGS16 and Galphao. bead-based flow cytometry RGS16-Galphao binding, fluorescence; actives lie on both sides. actives 0.38% (n = 220,000). binding response (% of control), % at 10 µM. O15492+P09471;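 active = below 25% or above 175%, edge rows of some plates excepted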;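 also: Galphao activated by GDP with aluminum fluoride before binding; 100% = wells without compound and 0% = beads without RGS; some results beyond the cut were filed as inactive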
# Target sequence (O15492 whole entry, looked up): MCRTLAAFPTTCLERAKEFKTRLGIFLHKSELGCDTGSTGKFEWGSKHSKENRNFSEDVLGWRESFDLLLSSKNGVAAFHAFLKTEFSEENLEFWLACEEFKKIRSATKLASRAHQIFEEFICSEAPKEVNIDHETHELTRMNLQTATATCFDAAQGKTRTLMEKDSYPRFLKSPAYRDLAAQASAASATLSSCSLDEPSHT
# Target sequence (P09471 whole entry, looked up): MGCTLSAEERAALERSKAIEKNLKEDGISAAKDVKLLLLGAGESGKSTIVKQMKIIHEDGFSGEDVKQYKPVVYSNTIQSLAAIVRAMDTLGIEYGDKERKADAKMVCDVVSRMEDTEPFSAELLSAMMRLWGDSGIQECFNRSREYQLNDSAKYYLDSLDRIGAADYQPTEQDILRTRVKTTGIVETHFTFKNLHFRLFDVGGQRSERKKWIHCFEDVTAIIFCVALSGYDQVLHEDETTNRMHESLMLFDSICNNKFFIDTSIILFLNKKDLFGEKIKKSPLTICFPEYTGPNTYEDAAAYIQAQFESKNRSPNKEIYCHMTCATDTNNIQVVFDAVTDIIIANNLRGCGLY
# PKD1 kinase inh – PKD1 (human) kinase inhibition; PKD1 kinase fluorescence polarization assay; inhibition, %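 (about 10 µM by stock and volumes)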; actives 0.056% (n = 200,000); Q15139;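 active = inhibition of 50% or more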;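 also: controls were vehicle for no effect and a reference inhibitor for full effect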
# HSV replic up – HSV replication enhancement; HSV replication augmentation in cells, fold increase; maximum fold increase; actives 0.005% (n = 220,000); AID 1956;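 active = peak rise of 1.5-fold or more in the series; inconclusive = self-fluorescent or not available for retest; tested in PC3 cells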;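 also: first round at 10 µM; read as green reporter fluorescence; hits show the peak of a series up to 25 µM; 1 = signal of infected wells without compound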
# GALR2 agonist – agonists of human galanin receptor 2 (GALR2); O43603; GALR2-expressing cells, agonist activation read-out; actives 0.48% (n = 140,000); activation, %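 (tested at 5 µM)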;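 active = above mean plus 3 SD of all compounds, about 5% in these data, not always enough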;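 also: 0% = vehicle buffer wells and 100% = reference agonist at full effect; tested in CHO reporter cells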
# Target sequence (O43603 whole entry, looked up): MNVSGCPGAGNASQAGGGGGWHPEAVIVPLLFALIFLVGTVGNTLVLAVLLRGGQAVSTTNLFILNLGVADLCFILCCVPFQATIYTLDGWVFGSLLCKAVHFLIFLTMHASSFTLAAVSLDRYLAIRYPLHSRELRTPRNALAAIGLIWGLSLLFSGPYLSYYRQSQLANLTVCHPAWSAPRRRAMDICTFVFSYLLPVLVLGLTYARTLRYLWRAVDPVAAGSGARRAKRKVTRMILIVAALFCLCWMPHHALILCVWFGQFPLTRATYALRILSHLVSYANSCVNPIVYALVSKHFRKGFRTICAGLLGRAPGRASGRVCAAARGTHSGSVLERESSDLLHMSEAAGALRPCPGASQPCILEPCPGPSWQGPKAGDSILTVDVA
# Insulin prom inh cell count – recorded beside Insulin prom inh, whose call it bears; normalized cell count, %; measured here: cell count, toxicity; reference of the scale not given here;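 cells exposed to compound for 48 h; stained nuclei by imaging scaled within each plate; lower means fewer cells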
# HSV replic up primary fold – further read-out of HSV replic up, marked with its call; fold increase; compound at 10 µM; measured here: primary screen fold increase 10 uM; tested in PC3 cells;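 GFP signal in the first replicate; 1 = infected wells without compound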
# * hit, by the source's call; i = inactive; ? = inconclusive; nt = no result given.
SMILES,Insulin prom inh,Insulin prom inh cell count,RGS16-Gao HTS,PKD1 kinase inh,HSV replic up,HSV replic up primary fold,GALR2 agonist
Cn1nc(-c2ccc(Cl)cc2)c2cc(C(=O)NCc3ccco3)sc21,nt,nt,103,-9,i,0.71,-1.7
Cn1c(=O)c2c(ncn2Cc2ccc(Cl)cc2)n(C)c1=O,nt,nt,100,6,i,1.7,nt
O=C1NCCCC1C(=O)N/N=C/c1cccc(O)c1 (stereo not drawn),26,143,107,-4,i,1.1,-0.4
Cc1nc2ccccc2nc(C)c1=NOCC(=O)N(c1ccccc1)C(C)C,nt,nt,104,-1,i,0.98,nt
COC(=O)CNC(=O)COC(=O)c1cc(SC)ccc1Cl,58,97,108,-3,i,0.94,nt
CCNc1ccc(C(=O)OCC(=O)NCc2ccccc2Cl)cc1[N+](=O)[O-],nt,nt,103,4,i,1.1,-2.4
Cc1ccn2cc(C(=O)NCc3ccco3)nc2c1,-25,83,102,5,i,1.1,nt
COc1ccc(NC(=O)CN(C)C(=O)c2oc3ccccc3c2C)cc1,58,151,115,2,i,1,nt
C/C(Cl)=C\Cn1c(Nc2ccc(C)cc2)nc2c1c(=O)n(C)c(=O)n2C,24,113,125,-5,i,1,-1.4
Cc1cc(F)c(F)c(C(=O)NC2CC2)c1Cl,-19,141,150,-3,i,0.83,-2.3
CCN(CC(=O)NC1CCS(=O)(=O)C1)c1nc(-c2cccnc2)nc2ccccc12 (stereo not drawn),-44,133,103,-10,i,0.99,0.7
O=C(O)c1cc(-n2nnnc2SCc2ccccc2F)ccc1Cl,nt,nt,99,-1,i,0.89,nt
NC(=O)Cc1ccc(Nc2nnc(-c3ccccc3)c3ccccc23)cc1,nt,nt,102,0,i,0.77,0.1
CCS(=O)(=O)c1ccc2c(c1)N(S(=O)(=O)c1ccc(Cl)cc1)CC(C(=O)O)O2 (stereo not drawn),nt,nt,99,6,i,0.95,nt
CSc1nc2sc3c(c2c2nncn12)CCC3,-17,104,106,9,i,0.94,0.1
CCc1ccc2c(c1)cc(CN(C(=S)Nc1ccc(Cl)cc1)C1CC1)c1nnnn12,nt,nt,105,-1,i,1,-0.8
CC1CN(CCCCOc2cccc(Oc3ccccc3)c2)CC(C)O1 (stereo not drawn),nt,nt,100,0,i,0.82,nt
CCn1nc(C)c(C2C(C#N)=C(N)OC3=C2C(=O)CCC3)c1C (stereo not drawn),-50,29,109,2,i,0.97,1.4
N#Cc1ccccc1NC(=O)CSc1nnc(-c2ccccc2O)n1-c1ccccc1,35,138,101,1,i,1.2,-2.7
N#Cc1c(N)nc2c(c1-c1ccc3c(c1)OCO3)CCCCCC2,-16,86,101,-13,i,0.98,0.1
O=C(c1csc2ccccc12)n1cccn1,-32,141,117,-9,nt,nt,-2.4
CC(C)NC(=O)c1ccccc1NC(=O)Cc1ccc(Cl)cc1,17,105,95,-8,i,0.86,-0.1
O=C(Cn1c(=O)sc2ccccc21)Nc1ccc2c(c1)OCCO2,nt,nt,110,7,i,1,-3.0
O=C(O/N=C1\CCS(=O)(=O)c2sccc21)c1c(F)cccc1F,13,120,98,6,i,0.96,nt
C1=C2C[N+]3(CCCC3)CC2Cc2ccc3ccccc3c21 (stereo not drawn),-33,144,102,3,i,1.1,-0.6
CCn1c(CNC(=O)C23CC4CC(CC(C4)C2)C3)nnc1SC,11,81,103,-9,i,1.1,nt
CCOc1cccc(=O)c2c(C)n(CC3CCCO3)c(C)c12 (stereo not drawn),nt,nt,105,2,?,nt,-0.6
Nc1ccc(NC(=O)c2ccccc2)c2c1C(=O)c1ccccc1C2=O,54,101,92,2,i,0.88,-5.2
C[C@@H](C(=O)N[C@H](C(=O)O)c1ccccc1)n1nnc2ccccc2c1=O,-21,126,86,2,i,0.92,-0.1
Cc1ccc(NS(=O)(=O)c2ccc(OCC(=O)N3CCOCC3)cc2)cc1,-79,108,102,-7,i,0.9,-2.2
CCOc1ccccc1C(=O)N1CCN(c2ccc(C(F)(F)F)cn2)CC1,38,73,105,-4,i,1,nt
Cc1ccc(C)n1-c1ccc(N2CCOCC2)cc1,-15,112,37,-6,i,0.89,-1.2
CCN1CCN(CC(O)COc2ccc3c(C)cc(=O)oc3c2)CC1 (stereo not drawn),0,89,101,-5,i,0.63,nt
COc1ccc(C(=O)NCCc2nnc(SCC(=O)Nc3ccccc3F)n2C)cc1,nt,nt,107,11,i,1.2,nt
CCCCOc1ccc(S(=O)(=O)Nc2cccnc2)cc1,nt,nt,102,-2,i,0.82,-1.3
CC(C)c1ccc(CN(C(=O)C2COc3ccccc3O2)C2CCS(=O)(=O)C2)cc1 (stereo not drawn),-30,53,102,-15,i,0.97,0.4
Cc1ccc(OCc2nnc(SCC(=O)C(C)(C)C)n2Cc2ccco2)cc1,-79,98,98,6,i,0.88,-0.9
CC(=O)Nc1ccc2c3c(cccc13)C(=O)N(c1ccccc1)C2=O,53,85,141,-5,i,1.1,nt
Cc1ccccc1C(=NC(=O)c1ccccc1)c1ccccc1,nt,nt,103,2,i,1.1,-1.9
CC(=O)n1cc([C@H]2C=C(C(=O)Nc3ccccc3)O[C@@H](OCc3ccc(CO)cc3)C2)c2ccccc21,nt,nt,100,-4,i,0.67,nt
COC(=O)c1nn(-c2ccc(Cl)cc2)c(=O)cc1Sc1ccccn1,nt,nt,98,-1,i,0.93,-0.7
Cc1ccc(NC(=S)NC(=O)c2c(-c3ccccc3Cl)noc2C)cc1,0,129,110,-6,nt,nt,-1.9
Cc1ccc(OS(=O)Nc2cccc3nccnc23)cc1 (stereo not drawn),-9,104,109,5,i,0.98,-1.8
Cc1csc2nc(CNC(=O)C3CCCCC3)cn12,nt,nt,105,-4,i,0.91,-0.8
CSc1nnc2c(n1)OC(c1cccn1C)N(C(C)=O)c1ccccc1-2 (stereo not drawn),0,126,109,-1,i,0.87,-0.1
CC(C(=O)N1CCCCC1)n1ncn2cccc2c1=O (stereo not drawn),nt,nt,105,-7,i,0.96,0.0
CCOc1nc(-c2ccc(Cl)cc2Cl)ccc1C#N,30,125,105,5,i,0.96,-0.3
CCOc1ccc(S(=O)(=O)N(CCO)CCO)cc1-c1nc2c(C(C)(C)C)nn(C)c2c(=O)[nH]1,27,49,103,-2,i,0.81,0.5
O=C(CCC1CCCCC1)Nc1nccs1,nt,nt,101,5,i,0.91,nt
COc1ccc(-c2nc(CS(=O)CC(=O)NCCC3=CCCCC3)c(C)o2)cc1 (stereo not drawn),nt,nt,104,-7,i,1,-1.9
COc1ccc(S(=O)(=O)N2CCCCCC2)cc1NC(=O)c1c2c(nc3ccccc13)CCN(Cc1ccccc1)C2,-46,85,100,-8,i,0.77,0.4
O=C(CCCc1ccccc1)Nc1cccc(C(=O)O)c1,33,140,102,8,i,1,nt
CC(=O)N1CN(C2CCCC2)Cc2c1sc1c2CCCC1,-90,101,100,-5,i,0.88,-3.6
COCC(=O)N(Cc1nc2sc(C)c(C)c2c(=O)[nH]1)C1CCCCC1,nt,nt,104,nt,i,1,nt
CCOc1ccc2nc(SCC)[nH]c2c1,86*,139*,69,-1,i,1,-3.8
Cc1cc(C)n(-c2nc3ccccc3nc2NCCc2ccccc2)n1,nt,nt,103,8,i,0.92,-0.1
COc1cccc(/C=N/Nc2ncnc3c2ncn3Cc2ccccc2)c1O,0,88,106,-5,i,0.61,0.9
O=C(CSc1nc2sc3c(c2c(=O)n1-c1ccccc1)CCCC3)NCc1ccco1,nt,nt,100,-2,nt,nt,0.1
CC1CCN(c2nc3ccc(C(=O)O)cc3s2)CC1,-131,68,88,-7,i,0.85,-0.3
CCCOC(=O)C1C2C=CC(C3CC23)C1C(=O)OCC(=O)c1ccccc1 (stereo not drawn),0,105,71,-5,i,1.1,-2.7

# The listing continues.
SMILES,Insulin prom inh,Insulin prom inh cell count,RGS16-Gao HTS,PKD1 kinase inh,HSV replic up,HSV replic up primary fold,GALR2 agonist
COc1ccc(C)cc1NC(=O)COC(=O)C1CC1,-18,119,104,-1,i,1.1,-0.7
O=C(CCn1c(=O)oc2ccccc21)N1CCN(c2ccc(F)cc2)CC1,0,55,140,-15,i,1,-1.1
O=C(NCCO)c1ccc(Cl)c(Cl)c1,nt,nt,105,6,i,0.84,-0.3
Cc1ccc(OS(=O)(=O)c2ccccc2)c(/C=N/N=C2\NC(=O)C(C)S2)c1 (stereo not drawn),-50,77,101,-1,i,0.94,-0.7
CSCCC(NS(=O)(=O)c1ccc(Cl)cc1)C(=O)OCC(=O)NC1CC1 (stereo not drawn),3,151,97,-8,nt,nt,1.6
Cc1nc2ccccc2n1CC(=O)N/N=C/c1cccs1,-50,99,102,-5,i,0.99,-0.9
CCOC(=O)c1ccc(Nc2ncnc3c2cnn3C)cc1,nt,nt,101,-9,i,0.81,-2.5
CCC(CC)N1CCN(CC2CC=CCC2)CC1 (stereo not drawn),-45,165,107,-1,i,0.95,nt
NC(=O)/C(=C/c1cccnc1)NC(=O)c1ccccc1,nt,nt,104,nt,i,1.1,nt
COc1ccc(CCCc2nnc(SCC(=O)Nc3nc(C)cs3)n2C)cc1C,nt,nt,94,2,i,0.78,0.1
C=CCc1cc(/C=C2/NC(=O)NC2=O)cc(OCC)c1O,57,122,100,-4,i,0.79,nt
NC(=O)NCc1cccc(Cl)c1,-38,165,96,-1,i,0.9,-0.6
Cc1nc2c(c3c1[nH]c1ccccc13)C(O)CC(C)(C)C2 (stereo not drawn),nt,nt,106,-9,i,0.87,-1.5
COc1cccc(OC)c1OCCCCn1cnc2ccccc2c1=O,nt,nt,100,-6,i,0.91,nt
COc1ccc(-c2nc(-c3cccc(C)c3)no2)cc1OC,38,117,106,1,i,1,0.8
C/C(=N\Nc1cccc(C(=O)O)c1)c1ccc(Cl)s1,nt,nt,84,2,i,0.95,nt
O=c1cc(N2CCCCC2)c2ccccc2o1,nt,nt,103,3,i,1,nt
CCc1nc(SCC(=O)N2CCN(c3ccccc3)CC2)c2oc3ccccc3c2n1,6,158,97,-4,i,0.88,-2.3
CNc1ccc(Br)cc(C(=O)/C=C/c2cccc(Cl)c2Cl)c1=O,nt,nt,103,-12,i,1.1,nt
c1ccc(-n2ncc3c(NCc4ccc5c(c4)OCO5)ncnc32)cc1,-406,53,80,-4,i,0.7,-0.9
c1ccc(OCCSc2ncnc3nc[nH]c23)cc1,nt,nt,nt,-11,i,1,-2.1
Cc1cc(C)nc(-n2nc(C)cc2NC(=O)CN2CCCC(C)C2)n1 (stereo not drawn),nt,nt,99,1,i,0.86,1.4
COc1cc(C(=O)O)cc(OC)c1OCc1cc(C(=O)O)oc1C,-23,100,80,-14,i,0.99,-2.0
CCCOn1c(-n2nc(C)cc2C)nc2ccccc2c1=O,17,117,97,-6,i,1.3,-0.7
Cc1onc(-c2ccccc2Cl)c1C(=O)NCc1ccc(S(N)(=O)=O)cc1,-85,121,114,1,i,1,-1.6
O=C(COC(=O)c1ccccc1NC(=O)c1ccco1)Nc1ccc2c(c1)OCO2,nt,nt,113,7,i,0.89,-1.4
CC1Oc2ccccc2N(Cc2cccnc2)C1=O (stereo not drawn),-33,67,123,-5,i,1,-1.9
CCOC(=O)c1cccc(NC(=O)c2cncc(Br)c2)c1,-34,83,99,0,i,0.83,-0.1
Cc1ccc(C(=O)Nc2cccc(C(=O)O)c2)cc1,-7,110,93,-1,i,0.83,-2.8
CCCCc1c(C)nc2ccc(C)cc2c1SCCC(=O)O,nt,nt,100,13,i,0.74,nt
CCOc1cccc(/C=C2\NC(=S)N(c3ccccc3)C2=O)c1O,nt,nt,88,nt,?,nt,nt
O=C(NC12CC3CC(CC(C3)C1)C2)c1cnccn1,-22,138,100,-10,i,1,1.2

# Retrieved one by one from the list above:
SMILES,Insulin prom inh,Insulin prom inh cell count,RGS16-Gao HTS,PKD1 kinase inh,HSV replic up,HSV replic up primary fold,GALR2 agonist
CCc1nc(SCC(=O)N2CCN(c3ccccc3)CC2)c2oc3ccccc3c2n1,6,158,97,-4,i,0.88,-2.3
CCCOn1c(-n2nc(C)cc2C)nc2ccccc2c1=O,17,117,97,-6,i,1.3,-0.7
c1ccc(OCCSc2ncnc3nc[nH]c23)cc1,nt,nt,nt,-11,i,1,-2.1
Cc1ccc(C(=O)Nc2cccc(C(=O)O)c2)cc1,-7,110,93,-1,i,0.83,-2.8
CCCCc1c(C)nc2ccc(C)cc2c1SCCC(=O)O,nt,nt,100,13,i,0.74,nt
COc1cc(C(=O)O)cc(OC)c1OCc1cc(C(=O)O)oc1C,-23,100,80,-14,i,0.99,-2.0

# Compound activity deposited in PubChem by several laboratories.
